# Kir21 inh – inhibitors of mouse Kir2.1 inward-rectifier potassium channel; hit rate 0.85% among 310,000; B-score at 10 µM; HEK293-Kir2.1, FluxOR thallium flux fluorescence; hits give low values;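 active = fluorescence ratio B-score at or below minus 3 SD of library scores, with starting-brightness B-score within 2 SD, cut at about -4.2 in these data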;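 also: channel flux triggered by added potassium and thallium sulfate stimulus; B-score of peak minus minimum fluorescence over baseline after thallium stimulus; more negative B-score means stronger Kir2.1 block with less thallium influx; some compounds called inactive have numbers as strong as hits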
# Target sequence (P35561 whole entry, looked up): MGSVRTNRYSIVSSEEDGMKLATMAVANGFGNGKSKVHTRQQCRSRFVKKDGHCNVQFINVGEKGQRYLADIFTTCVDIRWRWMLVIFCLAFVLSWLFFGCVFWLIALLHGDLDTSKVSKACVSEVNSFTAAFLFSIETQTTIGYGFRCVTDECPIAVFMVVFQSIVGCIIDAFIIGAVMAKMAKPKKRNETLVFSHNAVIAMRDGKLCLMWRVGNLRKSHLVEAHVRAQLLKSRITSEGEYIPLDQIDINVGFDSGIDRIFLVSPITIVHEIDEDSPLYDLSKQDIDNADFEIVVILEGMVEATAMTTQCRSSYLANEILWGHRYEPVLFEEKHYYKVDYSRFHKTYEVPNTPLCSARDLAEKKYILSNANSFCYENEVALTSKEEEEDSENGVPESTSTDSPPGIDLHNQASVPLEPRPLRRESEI
# An asterisk follows results filed as active; & = joins results of further samples. These rows are one share of the data, and most or all hits are left out here.
Kir21 inh,mol
-1.04,CC(C)Cc1ccc(C(C)C(=N)N)cc1 (stereo not drawn)
-0.81,COc1cc2c(C(=O)N3CCN(C)CC3)c(C)n(-c3ccccc3)c2cc1Br
0.02,O=C1C=C(c2ccccc2)OC(c2ccccc2)O1 (stereo not drawn)
-0.34,N#CCCN(Cc1cccnc1)C(=O)Nc1cccc(Cl)c1
0.29,CCOC(=O)C1(Cc2ccc(OC)cc2)CCN(C(=O)c2ccc3[nH]ccc3c2)CC1
-2.34,CN(CC(=O)Nc1cccc(F)c1)C(=O)c1csc2c1CCCC2
-3.05,COc1ccc(OC)c(NC(=O)C2CCN(Cc3cnn(-c4ccccc4)c3-n3cccc3)CC2)c1
0.03,Cc1ccc(N/N=C2\CC(=O)c3ccccc32)cc1Cl
2.12,Cc1ccc(NC(=O)c2ccc(NC(=O)C3CCCCC3C(=O)O)cc2)cc1 (stereo not drawn)
-0.17,O=C(c1ccccc1)N(Cc1nc2ccccc2c(=O)[nH]1)C1CCCCC1
1.79,CCN(CC)CCCNC(=O)Cc1c(C(=O)O)n(C)c2ccccc12
-2.63,CCN1CCN(C(c2cccs2)C(C)NC(=O)c2cccc(OC)c2)CC1 (stereo not drawn)
0.47,CSc1ccc(/C=C/C(=O)N2CCN(c3ccccn3)CC2)cc1
0.75,CCCCNC(=O)CS(=O)Cc1nc(-c2ccc(C)cc2)oc1C (stereo not drawn)
-0.03,C#CCOCCOCCOCCNc1nc(N2CCN(C(=O)[C@H](C(C)C)n3cc(CCO)nn3)CC2)nc(N2CCN(C(=O)[C@H]([C@@H](C)CC)n3cc(CCCCN)nn3)CC2)n1

# The results go on:
Kir21 inh,mol
-0.27,COc1cccc(NC(=O)NC2CCN(Cc3nnnn3Cc3ccc(F)cc3)CC2)c1
1.5,NC(=O)c1ccc(C(F)(F)F)n(Cc2ccccc2Cl)c1=O
1.08,Cn1ccnc1SCC(=O)c1ccc([N+](=O)[O-])cc1
2.11,O=C(CSc1nc(-c2ccccc2Cl)ns1)NCc1ccco1
0.72,Cc1ccc(N2CCN(S(=O)(=O)c3nnc(NC(=O)c4ccco4)s3)CC2)cc1
-0.61,COC(=O)C(C(=O)OC)C(C[N+](=O)[O-])c1ccc(O)c(OC)c1 (stereo not drawn)
-0.2,Cc1ccc(N2CCN(C(=S)c3ccc(N(C)C)cc3)CC2)cc1
1.94,CCOC(=O)C1=C(C)NC(C)=C(C(=O)OCC)C1c1cccc(C)n1
0.04,CC(NS(=O)(=O)c1ccc(Br)cc1)C(c1cccs1)N1CCN(C)CC1 (stereo not drawn)
0.41,O=C(CN(Cc1ccc(F)cc1)C(=O)C1CSC(=O)C1)NC1CCCCC1 (stereo not drawn)
0.96,Cn1c(SCC(=O)NC2CCCC2)nnc1-c1cccs1
1.27,Cc1ccnc(NC(=O)Nc2cccc(F)c2)n1
-0.97,COc1ccccc1NC(=O)c1sc2ncn(Cc3ccc(C)cc3)c(=O)c2c1C
-1.1,CCOc1ccc(-c2nnc3n2N=C(c2ccc(OC)cc2)CS3)cc1
0.23,CCOc1ccc(CNC(=O)C2CC(=O)N(C3CCCC3)C2)cc1OC (stereo not drawn)

# Part of the list above in order of SMILES length, lowest first.
Kir21 inh,mol
1.27,Cc1ccnc(NC(=O)Nc2cccc(F)c2)n1
0.96,Cn1c(SCC(=O)NC2CCCC2)nnc1-c1cccs1
-0.27,COc1cccc(NC(=O)NC2CCN(Cc3nnnn3Cc3ccc(F)cc3)CC2)c1
0.72,Cc1ccc(N2CCN(S(=O)(=O)c3nnc(NC(=O)c4ccco4)s3)CC2)cc1

# Next part
Kir21 inh,mol
-1.3,Cc1c(Cl)cccc1NC(=O)CSC(N)=O
0.18,CSCCC(NC(=O)c1ccccc1)C(=O)OCC(=O)Nc1ccc(C)c(Cl)c1 (stereo not drawn)
-1.27,Cc1nn(-c2ccccc2)c(C)c1NC(=O)COc1ccc(Cl)cc1Cl
0.7,O=C(N/N=C/c1ccco1)c1ccc(NC(=O)c2ccccc2Cl)cc1
-0.02,Cn1c(N)c(C(=O)COC(=O)C2CCC(C(C)(C)C)CC2)c(=O)n(C)c1=O (stereo not drawn)
0.28,CC(C)C(NS(=O)(=O)c1cccs1)C(=O)N1CCc2ccccc2C1 (stereo not drawn)
0.01,Cc1cc(NC(=O)C2CC(c3cccc(Br)c3)=NO2)no1 (stereo not drawn)
-2.26,CN1C(=O)C(C)(C)N(C(=O)c2cccc([N+](=O)[O-])c2)c2ccccc21
0.14,CN1CCC(=O)N(CCOc2ccccc2)CC1
1.2,Cc1ccc(CSCc2ccc(C(=O)NCC3CCCO3)o2)cc1 (stereo not drawn)
-0.97,CCCCC(=O)Nc1ccc(NC(=O)c2ccccc2[N+](=O)[O-])cc1OC
0.06,COC(=O)C1NC(=O)N2C(C(=O)OC)C(C)(C)S[C@H]12 (stereo partly drawn)
-0.38,COc1cc2c3c(c1OC)C1(C=CC(=O)C=C1)CC3N(C(=O)CCC(=O)O)CC2 (stereo not drawn)
-0.03,C[C@H]1C[C@@H]2[C@H]([C@@H](O)C[C@@]3(C)[C@H]2CC[C@]3(O)C(=O)CO)[C@@]2(C)C=CC(=O)C=C12
0.08,CCOC(=O)C(=CNCC(=O)O)C(=O)OCC

# Grouped by structure: the compounds so far containing a nitro group on carbon
Kir21 inh,mol
1.08,Cn1ccnc1SCC(=O)c1ccc([N+](=O)[O-])cc1
-0.61,COC(=O)C(C(=O)OC)C(C[N+](=O)[O-])c1ccc(O)c(OC)c1 (stereo not drawn)
-2.26,CN1C(=O)C(C)(C)N(C(=O)c2cccc([N+](=O)[O-])c2)c2ccccc21
-0.97,CCCCC(=O)Nc1ccc(NC(=O)c2ccccc2[N+](=O)[O-])cc1OC

# Going on with the list.
Kir21 inh,mol
0.43,Cc1cccc2nc(CSc3ccccc3C(=O)O)cn12
-0.81,COc1ccccc1C(=O)Nc1ccc(S(=O)(=O)Nc2cnc3ccccc3n2)cc1
-0.01,COc1cc(OC)cc(C(=O)OCC(=O)Nc2cccc(C(C)=O)c2)c1
-0.78,Cc1cc2nccc(-c3ccc(F)cc3)n2n1
0.52,CCOc1ccc(C(=O)Nc2nc3ccccc3[nH]2)cc1OCC
-0.66,O=C(c1ccccc1)c1ccccn1
0.56,O=C(CCc1nnc(-c2ccc3c(c2)OCO3)o1)N1CCC(c2ccc(F)cc2)C1 (stereo not drawn)
-0.16,Cc1cc(C)c2nncn2n1
2.36,COc1ccc(OCc2ccc(C(=O)O)cc2)cc1
-0.06&-0.46,O=C(O)CC(=O)NC12CC3CC(CC(C3)C1)C2
1.3,CCC(CC)C(=O)Nc1ccccc1-n1cccc1
-1.33,CCOC(=O)c1cccc(NC(=O)/C=C/c2cccc([N+](=O)[O-])c2)c1
-0.56,CCCC(c1nnnn1Cc1ccco1)N1CCN(c2ccccc2)CC1 (stereo not drawn)
-0.09,Nc1cc2c(cc1[N+](=O)[O-])OCO2
-0.06,COc1cc(O)c(C(CC(=O)N2CCN(c3ccccc3)CC2)c2cc(OC)c(OC)c(OC)c2)c(OC)c1 (stereo not drawn)

# (continued)
Kir21 inh,mol
-0.02,CCOc1ccc(C(=O)c2ccncc2)cc1
-0.07,Cc1ccccc1-c1nc(CS(=O)(=O)CC(=O)N2CCN(C)CC2)c(C)o1
-1.69,CCOC(=O)C(=Cc1ccc(-n2cncn2)cc1)C(=O)OCC
0.84,Cc1cccc(-c2nc3c(c(SCC(=O)N4CCOCC4)n2)Cc2c(CO)cnc(C)c2O3)c1
-1.73,Cc1ncc(C(=O)O)c(C(=O)O)c1N
0.13,CC(C)OCCCN1CC(=O)N2[C@@H](Cc3c([nH]c4ccccc34)C2(C)C)C1=O
1.77,O=C(Nc1ccccc1O)c1cccc(S(=O)(=O)N2CCOCC2)c1
0.8,Cc1[nH]c(=O)[nH]c(=O)c1CSc1nnc([C@@H](NC(=O)OC(C)(C)C)C(C)C)o1
-0.34,Clc1cccc(CN2CCCCCC2)c1
0.36,CCCNC(=O)CC(NS(=O)(=O)c1ccc(NC(C)=O)cc1)C(C)C (stereo not drawn)
0.79,O=C(Nc1cnccn1)c1ccncc1
-0.07,COc1ccc(N(C(=O)c2ccn[nH]2)C(C(=O)NC(C)(C)C)c2ccc(F)cc2)cc1 (stereo not drawn)
-0.19,CCN1CCN(C(c2cccs2)C(C)NC(=O)c2ccccc2F)CC1 (stereo not drawn)
2.15,CC(=O)Nc1ccc(SCC(=O)N2CCN(S(=O)(=O)c3ccccc3)CC2)cc1
0.66,O=S(=O)(N/N=C\C=C\c1ccccc1)c1ccccc1

# Gathered by group: the entries above containing an NH in an aromatic ring (6)
Kir21 inh,mol
0.29,CCOC(=O)C1(Cc2ccc(OC)cc2)CCN(C(=O)c2ccc3[nH]ccc3c2)CC1
-0.17,O=C(c1ccccc1)N(Cc1nc2ccccc2c(=O)[nH]1)C1CCCCC1
0.52,CCOc1ccc(C(=O)Nc2nc3ccccc3[nH]2)cc1OCC
0.13,CC(C)OCCCN1CC(=O)N2[C@@H](Cc3c([nH]c4ccccc34)C2(C)C)C1=O
0.8,Cc1[nH]c(=O)[nH]c(=O)c1CSc1nnc([C@@H](NC(=O)OC(C)(C)C)C(C)C)o1
-0.07,COc1ccc(N(C(=O)c2ccn[nH]2)C(C(=O)NC(C)(C)C)c2ccc(F)cc2)cc1 (stereo not drawn)

# Later entries:
Kir21 inh,mol
-0.38,Cc1cc(C)c2nc(N(CCCN(C)C)C(=O)c3ccc(S(=O)(=O)N4CCCCCC4)cc3)sc2c1
1.5,COC(=O)CCC(=O)Nc1cccc(Br)c1
-1.02,O=C(Cn1nc(Cc2cccnc2)c2ccccc2c1=O)NCC1CCCO1 (stereo not drawn)
-0.08,CCOP(=O)(OCC)C(Nc1cccc(C(F)(F)F)c1)c1ccc(F)cc1 (stereo not drawn)
2.81,Cc1ccc2[nH]cc(S(=O)(=O)c3ccc(F)cc3)c(=O)c2c1
-0.79,Cc1cc(NC(=O)/C=C/c2ccc(Br)cc2)no1
-2.9,C=C(C)c1cccc(C(C)(C)NC(=O)NC2CCN(Cc3ccccc3)CC2)c1
-1.04,COCCn1c(SCC(=O)N2CCCC2=O)nc2sc(C)c(C)c2c1=O
-0.28,N#CC[n+]1cc(-c2ccc(Cl)cc2)n2c1CCC2
-0.85,O=C(N[C@@H]1CCC(=O)N(CC[C@H](Sc2ccccc2)c2ccccc2)CC1)OCc1ccccc1
2.62,CC(=C/c1ccc(C(C)C)cc1)/C=N/NC(=O)Cn1nc(C)cc1C
-1.25,COc1ccccc1N1CCN(C(=O)c2ccc(S(=O)(=O)N3CCCCCC3)cc2)CC1
0.78,COc1cccc(N(CC(=O)Nc2cccc(N(C)S(C)(=O)=O)c2)S(C)(=O)=O)c1
2.08,O=c1[nH]c2cc(Cl)ccc2c(O)c1-c1cccc(Oc2ccccc2)c1
0.13,Cc1ccc(OCC(=O)Nc2nnc(S(=O)(=O)N3CCCCCC3)s2)cc1

# New compounds follow.
Kir21 inh,mol
1.05,O=C(O)CCNC(=O)/C(=C/c1ccco1)NC(=O)c1ccco1
0.47,CC1CCN(C(=O)c2ccc(N3C(=O)c4ccccc4C3=O)cc2)CC1
-0.26,COc1ccccc1-n1cnnc1SCC(=O)Nc1ncc(Cl)cc1Cl
-0.44,O=C(NCc1ccccc1)C1=C[C@H](c2ccc(C(F)(F)F)cc2)C[C@H](OCCCCO)O1
-2.06,O=C1CSC(c2ccccc2)N1CC12CC3CC(CC(O)(C3)C1)C2 (stereo not drawn)
0.39,CCOc1ccc2ccccc2c1CNc1nnnn1C
1.16,O=C(O)[C@@H](O)[C@H](O)C(=O)O
1.77,CC1=C(C(=O)N(C)C)C(c2ccc(Cl)c(Cl)c2)NC(=O)N1 (stereo not drawn)
1.18,O=C(Nc1ccc(Cl)cc1)c1cc(-c2cccs2)on1
-1.35,Cc1ccc(S(=O)(=O)CCC(=O)Nc2ccc(S(=O)(=O)N(C)C)cc2)cc1
0.05,N#Cc1c(-c2cccc(F)c2)cc(-c2ccccc2)nc1Br
0.38,CN(C(=O)c1ccc2c(c1)OCO2)C1(C(=O)NC2CCCC2)CCCCC1
-0.87,O=C1CCC(=O)N1OCCCCOc1ccccc1
0.89,Cc1nnc(SCC(=O)Nc2ccc3c(c2)OCO3)o1
-0.28,O=C(CSc1ccc2nnc(-c3ccccn3)n2n1)Nc1ccccc1

# Further structures follow:
Kir21 inh,mol
-0.07,Cc1cc(C)nc(NC(=O)c2c(-c3c(Cl)cccc3Cl)noc2C)n1
0.23,CCN(CC)c1ccc2ccc(=O)oc2c1
0.21,CCCN(CCC)CCCNC(=O)C1CCN(S(=O)(=O)c2cccc3nsnc23)CC1
-0.4,Cc1ccc(C)c(-n2c(SCC(=O)N3CCCC3)nnc2-c2ccccn2)c1
-0.73,CCn1c(SCC(=O)NNC(=O)c2ccco2)nnc1-c1ccco1
-1.51,CC1(C)Cc2ccccc2-c2nnc(-c3cccnc3)n21
-1,CCn1cc([N+](=O)[O-])c(=O)c2cc(F)c(N3CCOCC3)cc21
-0.1,O=C(Cn1cnc2cc([N+](=O)[O-])ccc2c1=O)Nc1ccc(N2CCOCC2)cc1
-0.07,CCn1c(=O)c(C(=O)NCc2ccccc2)c(O)c2ccccc21
-0.62,CCOc1ccc(N2CC(C(=O)NCCc3ccccc3)CC2=O)cc1 (stereo not drawn)
0.49,O=C(COC(=O)c1cccs1)Nc1cccc(S(=O)(=O)NC2=NCCCCC2)c1
-1.05,Cc1ccc(CNS(=O)(=O)N(C)C)cc1
-0.28,Cn1cccc1Cc1nnc(SCC(=O)NCCc2ccccc2)n1-c1ccc(F)cc1
1.61,Cc1cc(-c2ccccc2)oc(=O)c1NC(=O)c1ccccc1
0.04,Cc1c(C(C)O)nnn1-c1nonc1N (stereo not drawn)

# (listing goes on)
Kir21 inh,mol
-0.14,CC(=O)N1CCC(C(=O)NC2CC(C)(C)Cc3c2cnn3-c2ccc(F)cc2)CC1 (stereo not drawn)
-2.1,CCOc1ccc(C(=O)N2CCc3ccccc32)cc1
0.04,CCOc1ccc2c(c1)C(C)=CC(C)(C)N2C(=O)Nc1ccccc1
-0.6,CCC1C(=O)NCCN1C(=O)c1ccc2nc(Cc3ccc(OC)cc3)oc2c1 (stereo not drawn)
-0.08,C(=N\n1cnnc1)/c1ccc(-c2ccccc2)cc1
-0.52,Cc1cccc(NC(=O)c2cc(S(=O)(=O)N3CCCCC3)c[nH]2)c1C
1.2,CSc1ccccc1NC(=O)CO/N=C(\C)c1cc2ccccc2o1

# Screening data (PubChem BioAssay)
